GLA inh pH 4.5: qHTS Assay for Inhibitors of Human alpha-Galactosidase at pH 4.5. activity change, negative = inhibition, % at 105 µM. purified enzyme, 4-MU-alpha-Gal fluorescence, pH 4.5. Alpha-galactosidase A (Homo sapiens), P06280. 230,000 tested, under 10 active; inconclusive = small, poorly fitted or top-dose-only inhibition, or a rising curve; inactive = flat fitted curve, though single readings scatter; no compound was filed as active;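 also: 0% = full activity with enzyme and -100% = basal without enzyme; dose as in the result columns while the protocol names 77 µM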
miR-21 reporter: qHTS Assay for Modulators of miRNAs and/orActivators of miR-21. Potency, µM (doses to about 38.3 µM), for inactives: at the top dose reporter change, positive = more light. AID 2288, 2010. 340,000 tested, under 10 active. HeLa miR-21 FLuc reporter, luciferase, 48 h; active = well fitted rising curve with a large enough effect; inconclusive = small, poorly fitted or top-dose-only effect; inactive = no such curve, though single readings can be large or run the other way;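 also: % of control where 0% means no effect; miR-21 action dims this reporter so a rising signal means less miR-21 action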
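Compounds were titrated across several concentrations (up to approximately 40 uM) and incubated 48 hours with HeLa miR-21-FLuc reporter cells (miR-21 target sequence downstream of FLuc, endogenous miR-21). Readout was firefly luciferase luminescence after lytic detection reagent.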
Rango complex inh: qHTS Assay for Inhibitors of Rango (Ran-regulated importin-beta cargo) - Importin beta complex formation. AID 540263, 2011. Rango CFP/YFP FRET sensor + importin beta, 45 min. hit rate 0.031% among 340,000. Importin subunit beta-1 (Homo sapiens), Q14974. Potency, µM (highest dose often 92.2 µM), inactives show top-dose inhibition of complex formation; active = rising FRET ratio curve, often small or poorly fitted; inconclusive = mostly compound fluorescence or quenching in the first reads; inactive = flat curves in all reads;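 also: potency is read from the fitted curve at half-maximal effect; 0% = DMSO wells and 100% = buffer wells lacking importin beta; nearly all actives have a fitted effect of over 15% in size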
Target sequence (Q14974 whole entry, looked up): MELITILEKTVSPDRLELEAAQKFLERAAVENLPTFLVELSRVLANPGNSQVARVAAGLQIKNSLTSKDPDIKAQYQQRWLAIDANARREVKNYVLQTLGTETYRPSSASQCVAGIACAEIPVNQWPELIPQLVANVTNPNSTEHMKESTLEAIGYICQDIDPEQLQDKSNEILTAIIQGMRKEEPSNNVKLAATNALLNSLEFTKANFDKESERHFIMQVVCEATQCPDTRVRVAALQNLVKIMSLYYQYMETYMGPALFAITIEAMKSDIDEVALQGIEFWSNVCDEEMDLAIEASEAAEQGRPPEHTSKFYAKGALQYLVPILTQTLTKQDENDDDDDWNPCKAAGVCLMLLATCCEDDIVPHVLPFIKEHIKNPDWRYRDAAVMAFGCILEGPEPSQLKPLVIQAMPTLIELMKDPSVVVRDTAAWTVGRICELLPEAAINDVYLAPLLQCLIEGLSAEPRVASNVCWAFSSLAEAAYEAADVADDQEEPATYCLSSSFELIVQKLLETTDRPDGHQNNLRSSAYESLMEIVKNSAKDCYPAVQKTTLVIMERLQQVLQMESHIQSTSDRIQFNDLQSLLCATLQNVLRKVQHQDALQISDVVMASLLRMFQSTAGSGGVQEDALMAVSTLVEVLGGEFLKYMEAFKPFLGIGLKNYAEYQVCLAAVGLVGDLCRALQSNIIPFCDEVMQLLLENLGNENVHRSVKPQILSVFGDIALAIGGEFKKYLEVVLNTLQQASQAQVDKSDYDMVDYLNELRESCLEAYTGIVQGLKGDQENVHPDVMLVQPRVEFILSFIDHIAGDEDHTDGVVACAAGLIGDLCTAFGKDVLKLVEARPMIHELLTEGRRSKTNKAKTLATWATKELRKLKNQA
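Inhibition scored from the CFP 486 nm/YFP 530 nm FRET ratio 45 min after adding 0.125 microM importin beta to 50 nM Rango biosensor preincubated 5 min with compound (room temperature, PBS with DTT, Tween-20, BSA). No-importin wells as positive control.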
Rango release inh: qHTS Assay for Inhibitors of RanGTP induced Rango (Ran-regulated importin-beta cargo) - Importin beta complex dissociation; Snurportin-1 (Homo sapiens) + GTP-binding nuclear protein Ran (Homo sapiens) + Importin …; Biochemical FRET Rango-importin beta, RanGTP-induced dissociation; Potency, µM (doses to about 46.1 µM), inactives show at the highest dose activity change, negative = inhibition; hit rate 0.071% among 340,000; AID 540253, 2011; active means falling FRET ratio curve, often poorly fitted, with flat reads before Ran was added; inconclusive means other falling curves, or compound fluorescence or quenching; inactive means flat or rising ratio curve;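 also: potency is read from the fitted curve at half-maximal effect; % of control where 0% means no effect; nearly all actives have a fitted effect of over 45% in size; -100% = wells without RanGTP and RCC1; the record marks most hits as doubtful in a second field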
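Rango FRET biosensor (snurportin-1 IBB flanked by N-terminal EYFP and C-terminal CFP10) at 0.1 uM, with 0.25 uM importin beta in PBS, 1mM DTT, 0.02% Tween-20, 0.1% BSA. 0.6 uM Ran, 2mM GTP and 0.2 uM RCC1 were then added for 45 min at room temperature. Inhibition read as loss of FRET rise.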
* hit, by the source's call; & = joins results of further samples. Not all compounds are listed, so the mix of outcomes need not match the whole.

CCOc1cc(/C=N/Nc2ccccc2Cl)ccc1OCC(=O)O was read as GLA inh pH 4.5 1, miR-21 reporter -53%, Rango complex inh -1.5% and Rango release inh 2%.
For C=CCN1C(=O)c2ccc(C(=O)OCC(=O)Nc3ccccc3OC)cc2C1=O the results were Rango complex inh 7.3% and Rango release inh 24%.
For Clc1cccc(/C=N/Nc2nc(Cl)nc3ccccc23)c1 the results were GLA inh pH 4.5 0, miR-21 reporter -48%, Rango complex inh inconclusive and Rango release inh inconclusive.
`COc1ccc(CCNC(=O)c2cccc(S(=O)(=O)N3CCCC3)c2)cc1` gave Rango complex inh 0.7% and Rango release inh -9%.
Screening CC(C)c1ccc(NC(=O)COC(=O)C2CCCCC2)cc1 returned Rango complex inh -0.2% and Rango release inh -10%.
O=[n+]1c2c(n([O-])c3cc(Br)ccc31)CCC2 was read as GLA inh pH 4.5 -2, miR-21 reporter -2%, Rango complex inh 0.9% and Rango release inh -12%.
`O=c1c2cc(N3CCOCC3)ccc2[nH]c(=S)n1Cc1ccccc1Cl` gave GLA inh pH 4.5 6, miR-21 reporter 0%, Rango complex inh inconclusive and Rango release inh inconclusive.
`O=C(NCc1ccon1)c1ccc(OC2CCN(CCc3ccccc3)CC2)cc1` gave GLA inh pH 4.5 1, miR-21 reporter -1%, Rango complex inh 0.9% and Rango release inh -15%.
CC(C(=O)NC1CCCC1)N(C(=O)c1ccc(-c2ccccc2)[nH]1)c1ccccc1F (stereo unspecified) was read as GLA inh pH 4.5 -8, miR-21 reporter 6%, Rango complex inh -1.2% and Rango release inh 0%.
Screening Cc1cccc(-n2c(C)cc(C(=O)NC3CCCCC3)c2C)c1 returned GLA inh pH 4.5 3, miR-21 reporter -26%, Rango complex inh -0.5% and Rango release inh -7%.
Screening Cc1nnc(NCc2ccco2)c2ccccc12 returned GLA inh pH 4.5 3, miR-21 reporter -12%, Rango complex inh 0.3% and Rango release inh -2%.
COc1ccc(CN2C(=O)NC3(CCCCCC3)C2=O)cc1F was read as GLA inh pH 4.5 0, miR-21 reporter -11%, Rango complex inh -0.6% and Rango release inh 20%.
`O=C(CNC(=O)c1ccc(S(=O)(=O)N2CCCC2)cc1)N/N=C/c1ccccc1` gave GLA inh pH 4.5 -11, miR-21 reporter 0%, Rango complex inh 0.3% and Rango release inh 0%.
CC1(C)CC2CC(C)(CN2C(=O)COC(=O)c2ccc(O)cc2O)C1 (stereo unspecified) was read as Rango complex inh -1.9% and Rango release inh -12%.
Screening O=C(Nc1ccnn1C1CCN(Cc2ccc(OC(F)F)cc2)CC1)C1CCCC1 returned miR-21 reporter 13%, Rango complex inh -2.4% and Rango release inh -1%.
Screening O=C(COc1cc2oc(=O)c3c(c2cc1Cl)CCC3)NCc1ccncc1 returned miR-21 reporter -3%, Rango complex inh -1.0% and Rango release inh -4%.
For CCCOc1ccc(/C(O)=C2/C(=O)C(=O)N(CCN(C)C)C2c2ccc(O)c(OC)c2)cc1 (stereo unspecified) the results were GLA inh pH 4.5 0, miR-21 reporter -4%, Rango complex inh 1.8% and Rango release inh -2%.
For C/C(=N\Nc1nc(-c2ccc(C)cc2C)cs1)c1cc2ccccc2oc1=O the results were GLA inh pH 4.5 1, miR-21 reporter -3%, Rango complex inh 0.0% and Rango release inh 29%.
For CCOCCCNC(c1ccccc1)c1ccncc1 (stereo unspecified) the results were miR-21 reporter -6%, Rango complex inh 2.5% and Rango release inh 0%.
For COC(=O)c1cn(-c2ccccc2)nc1-c1cccnc1 the results were GLA inh pH 4.5 -2, miR-21 reporter -13%, Rango complex inh 2.1% and Rango release inh -4%.

Two successive compounds out of the list so far, quoted:
For CCOCCCNC(c1ccccc1)c1ccncc1 (stereo unspecified) the results were miR-21 reporter -6%, Rango complex inh 2.5% and Rango release inh 0%.
For COC(=O)c1cn(-c2ccccc2)nc1-c1cccnc1 the results were GLA inh pH 4.5 -2, miR-21 reporter -13%, Rango complex inh 2.1% and Rango release inh -4%.

(more compounds)
`CSc1ccccc1NC(=O)c1ccc2c(c1)CCN2S(C)(=O)=O` gave miR-21 reporter -37%, Rango complex inh -0.6% and Rango release inh 14%.
Screening CCNC(=O)NC(=O)C(C)N1C(=O)NC(c2ccccc2)(c2ccccc2)C1=O (stereo unspecified) returned miR-21 reporter 17%, Rango complex inh -0.3% and Rango release inh -18%.
For Cn1c(N)c(C(=O)COC(=O)/C=C/c2ccccc2Cl)c(=O)n(C)c1=O the results were Rango complex inh -0.3% and Rango release inh 1%.
Screening COc1cccc(-c2nnc(SCc3nc4ccccc4[nH]3)n2N)c1 returned GLA inh pH 4.5 3, miR-21 reporter -21%, Rango complex inh 0.0% and Rango release inh -9%.
COc1ccc2cc(CN(Cc3cccs3)Cc3nnnn3Cc3ccccc3)c(=O)[nH]c2c1 was read as GLA inh pH 4.5 -5, miR-21 reporter 1%, Rango complex inh 0.0% and Rango release inh -8%.
For CSc1nc(=NC(C)=O)ss1 the results were GLA inh pH 4.5 2, miR-21 reporter -41%, Rango complex inh -0.6% and Rango release inh 1%.
Screening COc1ccccc1C(C)NC(=O)Cc1ccsc1 (stereo unspecified) returned miR-21 reporter 0%, Rango complex inh 1.0% and Rango release inh 3%.
For CC(C)(C)c1nc(S(=O)(=O)c2ccc(Cl)cc2)c(N2CCOCC2)o1 the results were GLA inh pH 4.5 inconclusive, miR-21 reporter 1%, Rango complex inh 2.2% and Rango release inh 10%.
Screening O=C(CNC(=O)c1ccccc1Cl)NCCc1cccs1 returned Rango complex inh inconclusive and Rango release inh 0%.
`O=C(N/N=C/C1CC2CCC1C2)c1ccc2c(c1)OCO2` (stereo unspecified) gave GLA inh pH 4.5 2, miR-21 reporter -18%, Rango complex inh 3.6% and Rango release inh -12%.
For C/C(CCc1oc2ccc(Cl)cc2c1-c1ccc(C)o1)=N\O the results were GLA inh pH 4.5 8, miR-21 reporter -6%, Rango complex inh 1.7% and Rango release inh -18%.
Screening CN(C)/C=N/c1ncc(-c2ncc(C(F)(F)F)cc2Cl)cn1 returned GLA inh pH 4.5 0, miR-21 reporter -6%, Rango complex inh 0.3% and Rango release inh -1%.
Cc1ccccc1NC(=O)CSc1nnc(Cc2ccccc2)o1 was read as GLA inh pH 4.5 2, miR-21 reporter -4%, Rango complex inh -0.5% and Rango release inh 0%.
Screening COc1ccc(-c2oc3ncnc(N)c3c2-c2ccccc2)cc1 returned GLA inh pH 4.5 4, miR-21 reporter -22%, Rango complex inh -0.2% and Rango release inh -2%.
Screening O=C(CCCN1C(=O)c2ccccc2C1=O)Nc1ccccc1 returned GLA inh pH 4.5 -1, miR-21 reporter 1%, Rango complex inh inconclusive and Rango release inh 24%.
For COCc1ccc(CN2CCC(n3nccc3NC(=O)CCOc3ccccc3)CC2)o1 the results were miR-21 reporter 0%, Rango complex inh 0.0% and Rango release inh 6%.
For COCCCNC(=O)c1ccc(Cn2c(=O)c3ccccc3n(Cc3ccccc3C)c2=O)cc1 the results were GLA inh pH 4.5 5, miR-21 reporter 9%&2%, Rango complex inh -2.3% and Rango release inh 1%.
O=C(O)c1ccccc1-c1csc(-c2ccccc2)n1 was read as GLA inh pH 4.5 1, miR-21 reporter -52%, Rango complex inh -0.3% and Rango release inh -28%.
For Cc1ccc(S(=O)(=O)Nc2ccc(N=Nc3ccc(O)cc3)cc2)cc1 the results were GLA inh pH 4.5 -7, miR-21 reporter -13%, Rango complex inh -3.4% and Rango release inh -11%.
Screening O=C(C1=COCCO1)N(Cc1nnc(-c2ccccc2Cl)o1)C1CC1 returned Rango complex inh 2.4% and Rango release inh -12%.

A draw from above in order of molar mass, low to high.
CCOc1cc(/C=N/Nc2ccccc2Cl)ccc1OCC(=O)O was read as GLA inh pH 4.5 1, miR-21 reporter -53%, Rango complex inh -1.5% and Rango release inh 2%.
Screening O=C(COc1cc2oc(=O)c3c(c2cc1Cl)CCC3)NCc1ccncc1 returned miR-21 reporter -3%, Rango complex inh -1.0% and Rango release inh -4%.
For COCc1ccc(CN2CCC(n3nccc3NC(=O)CCOc3ccccc3)CC2)o1 the results were miR-21 reporter 0%, Rango complex inh 0.0% and Rango release inh 6%.

Following part
`CC12CC(O)C3c4ccc(O)cc4CCC3C1CC/C2=N\O` (stereo unspecified) gave miR-21 reporter -1%, Rango complex inh -0.1% and Rango release inh 11%.
Screening C=CCSc1nnc2c(n1)OC(c1cccnc1)N(C(C)=O)c1ccccc1-2 (stereo unspecified) returned GLA inh pH 4.5 2, miR-21 reporter 1%, Rango complex inh 0.2% and Rango release inh -11%.
O=C(CSc1ncn[nH]1)NCc1ccccc1 was read as GLA inh pH 4.5 -5, miR-21 reporter -3%, Rango complex inh 3.0% and Rango release inh 10%.
O=C(NCC1CCCCC1)NCC1CCCCC1 was read as Rango complex inh 0.4% and Rango release inh -5%.
For CC(=O)N1CCN(Cc2nc3cc(NC(=O)Nc4ccccc4)ccc3n2C)CC1 the results were GLA inh pH 4.5 -15, miR-21 reporter -19%, Rango complex inh -0.4% and Rango release inh 6%.
`O=C(C1CCCN(S(=O)(=O)c2cc(Cl)ccc2Cl)C1)N1CCCC1` (stereo unspecified) gave miR-21 reporter 9%, Rango complex inh -2.0% and Rango release inh 12%.
Cc1cccc(C(=O)NCCc2ccc(S(N)(=O)=O)cc2)c1[N+](=O)[O-] was read as GLA inh pH 4.5 -1, miR-21 reporter 1%, Rango complex inh -1.5% and Rango release inh -1%.
For Cc1cccc(NC(=O)c2sc(-c3ccccc3)nc2-c2ccc([N+](=O)[O-])cc2)c1 the results were GLA inh pH 4.5 -4, miR-21 reporter -6%, Rango complex inh -3.2% and Rango release inh 4%.
`CCC(C(=O)NCc1cccnc1)n1nc(C)c2sc3ccccc3c2c1=O` (stereo unspecified) gave miR-21 reporter -1%, Rango complex inh -3.2% and Rango release inh 2%.
CCOC(=O)CSC1=Nc2ccccc2C2=NC(CC(=O)NCc3ccc(OC)cc3)C(=O)N12 (stereo unspecified) was read as GLA inh pH 4.5 1, miR-21 reporter -4%, Rango complex inh -2.9% and Rango release inh 21%.
COc1ccc(-c2ccc(CCC(=O)O)n2-c2ccccc2OC)cc1 was read as miR-21 reporter 19%, Rango complex inh -2.0% and Rango release inh 11%.
CCOC(=O)C(NC(=O)OC(C)C)(Nc1nccs1)C(F)(F)F (stereo unspecified) was read as GLA inh pH 4.5 -1, miR-21 reporter -1%, Rango complex inh -1.4% and Rango release inh -2%.
CC(C)(C)SCCNC(=O)CN1C(=O)c2cccc3cccc1c23 was read as miR-21 reporter -3%, Rango complex inh inconclusive and Rango release inh inconclusive.
For Cc1ccc(S(=O)(=O)N(C)CC(=O)N2CCOCC2)cc1 the results were GLA inh pH 4.5 -6, miR-21 reporter -3%, Rango complex inh 2.8% and Rango release inh 1%.
Cc1cc(C)nc(NCC(O)CNc2ccccc2C)n1 (stereo unspecified) was read as GLA inh pH 4.5 -3, miR-21 reporter 2%, Rango complex inh -3.9% and Rango release inh 1%.
`CCN(CCn1cccn1)Cc1nc(-c2ccc(OC)cc2)no1` gave GLA inh pH 4.5 2, miR-21 reporter -12%, Rango complex inh 1.5% and Rango release inh 0%.
`Nc1nnc(CC(=O)N/N=C/c2cccc([N+](=O)[O-])c2)s1` gave GLA inh pH 4.5 -6, miR-21 reporter -1%, Rango complex inh -0.5% and Rango release inh 3%.
CCCCn1c(N)c(N(CCC(C)C)C(=O)COC(=O)c2ccc([N+](=O)[O-])s2)c(=O)[nH]c1=O was read as Rango complex inh -1.8% and Rango release inh 2%.
`C/C(=N\NC(=O)c1cccc(N/N=C(\C)c2ccc([N+](=O)[O-])cc2)c1)c1ccc([N+](=O)[O-])cc1` gave GLA inh pH 4.5 2, miR-21 reporter -5%, Rango complex inh 4.1% and Rango release inh -4%.
For Nc1nn(-c2ccccc2)c(N)c1N=Nc1cccc(F)c1 the results were GLA inh pH 4.5 5, miR-21 reporter -24%, Rango complex inh -2.2% and Rango release inh 6%.

Screening data as filed in PubChem BioAssay.
